# Beta cell apopt = blocks beta cell apoptosis; 300,000 tested, 0.8% active; protection from apoptosis, % (test concentration not listed); INS-1E cytokine-induced death, ATP luminescence, 48 h; percent of positive-control rescue, neutral wells zero;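 active = all replicates at 75% or more, or half of them and the mean; inconclusive = half reach 75% but not the mean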;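 also: 0% = cytokine-treated negative control wells and 100% = positive control rescue; higher means more ATP so stronger rescue from cytokine killing; wells of about 40 µL received 100 nL stock; the first replicate is given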
# UCH37 DUB inh = blocks the human deubiquitinase UCH37; Q9Y5K5; purified proteasome/UCH37, Ub-AMC cleavage fluorescence; inhibition, % (test concentration not listed); 330,000 tested, 0.33% active; AID 588478;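 active = mean of two replicates above 20%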;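 also: 0% = compound-free wells with enzyme and 100% = wells lacking proteasome; stock transfer was 100 nL into about 20 µL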
# Target sequence (Q9Y5K5 whole entry, looked up): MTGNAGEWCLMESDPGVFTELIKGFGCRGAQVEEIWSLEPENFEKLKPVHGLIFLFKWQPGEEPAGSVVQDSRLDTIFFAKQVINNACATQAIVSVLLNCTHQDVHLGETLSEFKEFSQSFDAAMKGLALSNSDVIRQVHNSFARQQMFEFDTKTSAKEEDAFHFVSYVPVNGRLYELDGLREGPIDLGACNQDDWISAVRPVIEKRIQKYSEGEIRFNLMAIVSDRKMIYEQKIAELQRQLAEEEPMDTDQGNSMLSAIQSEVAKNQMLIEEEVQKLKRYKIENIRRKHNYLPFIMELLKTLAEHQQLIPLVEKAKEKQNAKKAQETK
#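 assay system = human UCH37 enzyme supplied as purified proteasome complex | amount = proteasome at 0.15 nM in the dispensed enzyme solution | schedule = 30 min compound-proteasome preincubation then 25 min substrate reaction, room temperature | measured by = fluorescence, ex 355 nm, em 460 nm | benchmarks = no-proteasome wells (full inhibition) and compound-free wells (no inhibition)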
# E coli growth = blocks Escherichia coli growth. OD600, 23 h; stronger effect = lower value. OD600 absorbance (concentration not given with the values). 330,000 tested, 0.21% active. AID 1053175;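 active = OD600 absorbance below the run mean of sample wells minus 3.6 SD, in any replicate, cut at about 0.56 in these data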;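 also: stock transfer was 300 nL into about 60 µL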
# AF4-AF9 inh = MLL-AF4/AF9 protein interaction inhibition; P42568; AlphaScreen, biotin-AF4 peptide binding to FLAG-AF9; inhibition, % at 10 µM; 350,000 tested, 0.47% active;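 active = every replicate reaching a set inhibition limit, whatever the replicate mean, cut at about 25% in these data; inconclusive = mean inhibition reaches that limit but some replicates miss it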;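 also: 0% = plate neutral control median and 100% = total signal loss; the record names both 10 and 1 µM as test concentration; the first replicate is given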
# Target sequence (P42568 whole entry, looked up): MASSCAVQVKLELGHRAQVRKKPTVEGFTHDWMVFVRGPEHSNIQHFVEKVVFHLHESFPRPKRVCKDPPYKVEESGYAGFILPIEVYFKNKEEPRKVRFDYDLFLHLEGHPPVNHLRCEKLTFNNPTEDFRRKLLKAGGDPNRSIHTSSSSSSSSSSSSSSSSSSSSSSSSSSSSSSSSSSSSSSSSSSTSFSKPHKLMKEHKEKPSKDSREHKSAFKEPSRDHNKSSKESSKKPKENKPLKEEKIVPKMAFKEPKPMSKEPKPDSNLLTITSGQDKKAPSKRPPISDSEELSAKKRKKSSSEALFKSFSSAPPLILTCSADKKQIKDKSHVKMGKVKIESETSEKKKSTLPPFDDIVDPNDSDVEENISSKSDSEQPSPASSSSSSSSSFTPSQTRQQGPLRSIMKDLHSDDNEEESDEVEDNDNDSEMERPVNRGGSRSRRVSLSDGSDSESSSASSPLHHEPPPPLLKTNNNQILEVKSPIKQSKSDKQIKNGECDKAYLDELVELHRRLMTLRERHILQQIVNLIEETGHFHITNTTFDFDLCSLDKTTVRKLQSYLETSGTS
# Bfl-1 A1 inh = inhibitors of the anti-apoptotic protein A1, read as caspase activation; caspase activation, % (concentration not given with the values); AID 2462; 330,000 tested, 0.066% active; MEF A1-2A-BIM cells, Caspase-Glo 3/7 luminescence, 3 h; percent of clofoctol response, vehicle zero;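 active = over half of replicate activation scores above 10%, or exactly half above 10 with the replicate mean above 10; inconclusive = replicate mean below 10 yet half the replicates above 10; inactive = over half of replicates below 10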;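 also: wells of about 30 µL received 50 nL stock; many hits fall short of the cut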
# FGF22 binding = shifts melting point of recombinant human FGF22. recombinant FGF22 thermal shift, SYPRO orange fluorescence; percent of sucrose octasulfate shift, DMSO zero. Q9HCT0. calls only at 9.99 µM. 340,000 tested, 1.5% active;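 active = melting point raised past a set limit in the mean and every replicate; inconclusive = no clear call; three in four hits are not shown here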
# Target sequence (Q9HCT0 whole entry, looked up): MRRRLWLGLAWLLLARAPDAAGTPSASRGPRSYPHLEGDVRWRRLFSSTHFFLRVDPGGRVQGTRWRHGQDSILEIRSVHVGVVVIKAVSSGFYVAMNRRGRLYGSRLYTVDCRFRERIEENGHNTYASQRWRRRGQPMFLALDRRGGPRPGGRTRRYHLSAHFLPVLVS
# Ecoli rRNA inh = inhibitors of bacterial rRNA selective over humanized ribosomes; E. coli WT GFP vs humanized-ribosome RFP mutants, fluorescence, 24 h; stronger effect = lower value; DMSO median 0, no signal -100; GFP signal change (wild-type ribosome), % (concentration not given with the values); 350,000 tested, 1.6% active; AID 720706;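 active = significant combined selectivity score with lowered wild-type GFP, culture density cut under 30%, mutant RFP and density less affected; inactive = any of these conditions unmet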; also: one replicate is shown; some compounds called inactive have numbers as strong as hits
# T cruzi repl = T. cruzi replication inhibition | T. cruzi beta-gal in NIH3T3, luminescence, 90 h | inhibition, % (test concentration not listed) | 300,000 tested, 1.4% active;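 active = mean inhibition across valid replicates above about 55%, limit read from the data; inconclusive = mean below that limit but half or more replicates reach it; inactive = mean below it, under half of replicates reach it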;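 also: signal also drops with host cell toxicity which is not excluded here; 0% = plate median of DMSO wells and 100% = zero luminescence signal; higher percent means less beta-gal luminescence so fewer parasites; stock transfer was 50 nL into about 50 µL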
# Ecoli rRNA inh OD600 = also measured in Ecoli rRNA inh; calls as there; OD600 change, %; measured here: OD600 growth;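 optical density of the mix in the first replicate; 0 = DMSO median and -100 = no signal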
# Ecoli rRNA inh RFP = second read-out of Ecoli rRNA inh, no call of its own (marks repeat the call); RFP signal change, %; measured here: RFP humanized mutant strains;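 first replicate; 0 = DMSO median and -100 = no signal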
# The depositor's hits bear a star; i = inactive; ? = inconclusive; . = not tested or not shown.
# Every second line gives: Beta cell apopt, UCH37 DUB inh, E coli growth, AF4-AF9 inh, Bfl-1 A1 inh, FGF22 binding, Ecoli rRNA inh, Ecoli rRNA inh OD600, Ecoli rRNA inh RFP, T cruzi repl
> CC(=O)Nc1ccc(C(=O)CSc2ncn(-c3ccccc3)n2)cc1
 : 5, 2.8, 0.67, ., 1.1, ., ., ., ., 0
> CCOc1ccc(S(=O)(=O)Nc2nc3ccccc3nc2N2CCN(C)CC2)cc1
 : -5, -19, 0.67, ., 1.1, ., ., ., ., 15
> Cc1cccc(C)c1OCC(N)C(C)C (centres undefined)
 : ., -0.5, 0.69, -17, ., i, ., ., ., .
> Cc1cccc(NC(=O)C2CCCN(S(=O)(=O)c3ccc(-n4cnnn4)cc3)C2)c1 (centres undefined)
 : 0, 0.5, 0.62, -0.2, 0.0, i, ., ., ., 2
> COc1ccccc1Oc1ccc(NC(=O)c2ccc(Cl)cc2)cc1
 : 11, -0.5, 0.72, -0.5, -0.7, i, 5, 8, 0.4, 11
> O=C(NNS(=O)(=O)c1ccc(Cl)cc1)c1cc(-c2ccccc2)n[nH]1
 : 0, 2.7, 0.61, 3.5, 0.3, i, -10, -13, -6.7, 13
> COc1ccc(CCNC(=O)CC2SC(=NCCc3ccccc3)NC2=O)cc1OC (centres undefined)
 : -3, 2.1, 0.68, -2.9, 0.1, i, -2, 4, -1.9, 4
> N#CCN1CCC(c2cc(-c3ccco3)n[nH]2)CC1
 : -6, 1.7, 0.68, -12, 0.0, i, 9, 2, 10, -20
> CCOC(=O)N1CCN(C(=O)C2CCCN(Cc3nc(-c4ccc(Cl)cc4)oc3C)C2)CC1 (centres undefined)
 : 16, 3.2, 0.77, 2.6, -0.5, i, -7, -6, 0.7, 17
> COc1cccc(N2CCN(C3OC(=O)c4ccccc43)CC2)c1 (centres undefined)
 : -5, -0.7, 0.7, ., 0.1, ., ., ., ., 16
> C#CCOC(=O)Nc1cc(C)n(-c2ccccc2)n1
 : -14, -1.6, 0.64, -8.7, -0.3, i, 5, 0, -1.3, -7
> CCOC(=O)c1ccc2[nH]c3c(c2c1)CCCC3C(=O)OCC (centres undefined)
 : -7, 1.2, 0.67, ., -0.8, ., ., ., ., -4
> CC(C)(C)c1nn(-c2ccccc2)c2[nH]c(=O)c(CNCc3ccc4c(c3)OCO4)cc12
 : ., -1.6, 0.64, ., -0.3, ., ., ., ., 8
> Cc1ccc(NC(=O)CCC2CC(C)(C)OC2=O)cc1 (centres undefined)
 : 2, -1.5, 0.67, -0.7, -0.4, i, 12, 8, 2.3, -12
> Cc1c(NC(=O)CN2CCN(c3ccc(O)cc3)CC2)c(=O)n(-c2ccccc2)n1C
 : -3, 0.0, 0.64, -2.6, -0.7, i, 16, 25, 2.1, -12
> Cc1ccccc1NC(=O)C1CCC(C)(C(=O)O)C1(C)C (centres undefined)
 : -4, 0.9, 0.7, ., -0.2, ., ., ., ., -24
> CCOC(=O)c1ccc(-n2c(C)nc3c(cnn3-c3ccccc3Cl)c2=O)cc1
 : 1, -1.2, 0.7, ., 1.0, ., ., ., ., 17
> Cc1c(O)ccc2c(CC(=O)N[C@@H](Cc3c[nH]c4ccccc34)C(=O)O)cc(=O)oc12
 : -4, -261, 0.69, 3.0, 0.8, i, 7, 10, -0.3, -4
> CC(=O)Nc1nonc1NC(=O)CSC1=NCCS1
 : -3, 2.5, 0.74, ., -0.4, ., 1, -14, 3.9, 2
> Cc1ccc(C)c(N2CCN(C(=O)CN3C(=S)NC(C)(C)CC3C)CC2)c1 (centres undefined)
 : 2, -0.9, 0.65, 2.4, 1.4, i, 1, -10, -0.8, -5
> O=C(NC1C=CS(=O)(=O)C1)c1ccccc1 (centres undefined)
 : -4, -0.7, 0.68, -0.9, 0.3, i, 2, 1, -0.5, -12
> CCOCCCNc1ccc(-c2ccccc2)nn1
 : -3, -3.5, 0.66, 6.1, -5.5, i, 3, 4, -7.1, -1
> CCc1nnc(NS(=O)(=O)c2ccc(N=Cc3c(C)[nH]n(-c4ccc(C)cc4)c3=O)cc2)s1
 : 33, 11, 0.68, ., -0.4, ., ., ., ., -1
> O=C(Nc1ccccc1C(=O)OCc1nnc(-c2ccccc2)o1)c1ccco1
 : -5, -4.1, 0.72, ., 0.5, ., ., ., ., -9
> Cc1ccc(C)c(N2CCN(S(=O)(=O)c3ccc4c(c3)NC(=O)CO4)CC2)c1
 : ., 3.4, 0.67, 0.9, ., i, -37, -69, 7.6, -4
> COc1ccc2cc(C(=O)C3CCCN(C(=O)/C=C/c4ccccn4)C3)ccc2c1 (centres undefined)
 : -5, -46, 0.67, 4.9, 0.6, i, -34, -57, -0.8, 10
> Cc1cccc(NC(=O)CSc2ncnc3sc(C)c(C)c23)n1
 : -7, -2.6, 0.75, -2.1, 1.1, i, 4, -8, 2.0, -15
> Cc1ccc(S(=O)(=O)N2CCN(CCOc3c(Cl)cccc3Cl)CC2)cc1C
 : 0, -1.3, 0.71, -2.6, 0.7, i, -2, -3, 1.3, .
> O=C(CNCc1ccc(F)cc1)Nc1ccccc1[N+](=O)[O-]
 : -2, 4.8, 0.68, 0.0, -0.2, i, 10, 0, 4.2, -13
> COc1ccc(-c2ccnc3c(C(=O)O)cnn23)cc1
 : 1, -125, 0.65, -0.5, -0.1, i, 3, 3, -3.5, -11
> CC(OC(=O)c1ccc(-n2cnnn2)cc1)C(=O)Nc1ccccc1[N+](=O)[O-] (centres undefined)
 : 0, 0.5, 0.68, 5.8, -0.3, i, -5, -4, -2.3, .
> COc1ccc(-n2c(SCC(=O)Nc3cc(C)on3)nc3c(c2=O)SCC3)cc1
 : -6, 3.1, 0.77, -7.2, ., i, 4, 15, -5.1, -3
> O=C(NCCC1=CCCCC1)C(=O)NCC1OCCCN1S(=O)(=O)c1cc(F)ccc1F (centres undefined)
 : -3, 5.8, 0.71, -3.5, 0.5, i, -17, -14, -0.1, 1
> COc1ccc(/C=C/C(=O)NC2CCCCC2C)cc1 (centres undefined)
 : -4, 3.0, 0.68, 4.8, -0.2, i, 10, 6, 0.3, -5
> O=C(Nc1ccc(Cl)cc1)C1CC2CCCC(C1)C2=O (centres undefined)
 : 4, 0.0, 0.69, ., -0.8, ., ., ., ., -9
> COC(=O)c1cc2occc2n1CC(=O)Nc1ccc(OC)c(OC)c1
 : -2, 0.4, 0.7, ., 0.2, ., 10, 8, 2.8, -1
> COc1ccccc1C1CC(c2c(-c3ccccc3)c3cc(Cl)ccc3[nH]c2=O)=NN1S(C)(=O)=O (centres undefined)
 : 18, -2.3, 0.77, ., 0.0, ., ., ., ., .
> CCOC(=O)c1ccc(N(C(=O)c2ccco2)C(C(=O)NC2CCCCC2)c2ccncc2)cc1 (centres undefined)
 : -4, -1.1, 0.68, 1.8, -1.0, i, 4, 16, -2.6, 17
> Nc1cccc(C#Cc2ccc3c(=O)c4ccccc4oc3c2)c1
 : -1, 7.2, 0.85, 0.6, 0.2, i, 12, 24, 5.2, .
> COC(=O)c1ccccc1NC(=S)N(Cc1ccc2c(c1)OCO2)Cc1cc2ccc(C)cc2[nH]c1=O
 : 6, 1.7, 0.73, ., 0.3, ., ., ., ., 41
> Cc1ccccc1S(=O)(=O)/N=C(/c1ccccc1)N1CCOCC1
 : -2, ., ., -0.7, -0.2, i, 17, 13, 4.3, 2
> O=C(OCCCCN1C(=O)c2ccccc2C1=O)c1ccc(Br)o1
 : -10, 0.0, 0.63, ., 0.5, ., ., ., ., -11
> O=C(Nc1ccccc1)c1nc[nH]c1C(=O)NCCCNC(=O)c1[nH]cnc1C(=O)Nc1ccccc1
 : 3, 0.0, 0.7, -5.9, -0.9, i, 25, 14, -1.5, .
> CCN(CCNc1ccc(Cl)cc1[N+](=O)[O-])C(=O)c1cc([N+](=O)[O-])c(N(C)C)cc1OC
 : -2, 9.7, 0.67, ., 0.2, ., ., ., ., -11
> O=C1CC(c2ccccc2)Cc2nc(N3CCc4ccccc43)ncc21 (centres undefined)
 : 2, -144, 0.77, ., 0.2, ., ., ., ., -14
> CCN(CC)C(=O)/C(=C\c1ccncc1)NC(=O)c1ccccc1
 : -8, 1.8, 0.69, -0.2, 0.2, i, 23, 6, 3.5, -4
> CCN(CC(=O)NCc1cccs1)S(=O)(=O)c1ccc(NC(C)=O)cc1
 : -3, 3.9, 0.65, -0.2, 0.4, i, -1, -2, -3.2, -2
> COc1ccc(N(CC(=O)NCc2ccc(C)cc2)S(=O)(=O)c2c(C)nn(C)c2C)cc1
 : 5, 2.5, 0.65, 1.0, -0.9, i, 5, -3, -6.6, 11
> Cc1ccc(C(=O)OCC(=O)NC2CCCC2)cc1
 : ., 6.8, 0.64, 2.9, 0.4, i, 1, 7, 0.3, -1
> CN1CCCc2cc(C#N)c(=O)[nH]c21
 : -6, i, 0.67, ., -0.9, ., ., ., ., -16
> O=C(NC(C(=O)c1ccccc1)c1ccccc1)c1ccccc1 (centres undefined)
 : ., 0.4, 0.69, ?, ., i, 4, -39, -3.9, .
> COc1cc(/C=C/C(=O)OC(C)C(=O)Nc2ccc(Cl)cn2)ccc1OC(F)F (centres undefined)
 : 12, -2.0, 0.69, 4.6, 0.1, i, -12, -50, -2.2, .

# Four entries from above, with each value named.
Structure: Cc1ccc(C(=O)OCC(=O)NC2CCCC2)cc1
  Beta cell apopt: .; UCH37 DUB inh: 6.8; E coli growth: 0.64; AF4-AF9 inh: 2.9; Bfl-1 A1 inh: 0.4; FGF22 binding: i; Ecoli rRNA inh: 1; Ecoli rRNA inh OD600: 7; Ecoli rRNA inh RFP: 0.3; T cruzi repl: -1
Structure: CCN(CC(=O)NCc1cccs1)S(=O)(=O)c1ccc(NC(C)=O)cc1
  Beta cell apopt: -3; UCH37 DUB inh: 3.9; E coli growth: 0.65; AF4-AF9 inh: -0.2; Bfl-1 A1 inh: 0.4; FGF22 binding: i; Ecoli rRNA inh: -1; Ecoli rRNA inh OD600: -2; Ecoli rRNA inh RFP: -3.2; T cruzi repl: -2
Structure: CCN(CC)C(=O)/C(=C\c1ccncc1)NC(=O)c1ccccc1
  Beta cell apopt: -8; UCH37 DUB inh: 1.8; E coli growth: 0.69; AF4-AF9 inh: -0.2; Bfl-1 A1 inh: 0.2; FGF22 binding: i; Ecoli rRNA inh: 23; Ecoli rRNA inh OD600: 6; Ecoli rRNA inh RFP: 3.5; T cruzi repl: -4
Structure: O=C(OCCCCN1C(=O)c2ccccc2C1=O)c1ccc(Br)o1
  Beta cell apopt: -10; UCH37 DUB inh: 0.0; E coli growth: 0.63; AF4-AF9 inh: .; Bfl-1 A1 inh: 0.5; FGF22 binding: .; Ecoli rRNA inh: .; Ecoli rRNA inh OD600: .; Ecoli rRNA inh RFP: .; T cruzi repl: -11

# Compound activity from PubChem.

# Not all compounds are listed. The share of hits here may be higher or lower than overall.
